# Bioassay records deposited in PubChem BioAssay by several laboratories.
# RGS16-Gao: regulators of human RGS16-Galphao interaction. bead-based flow cytometry RGS16-Galphao binding, fluorescence; actives lie on both sides. binding response (% of control), % at 10 µM. 220,000 tested, 0.38% active;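 active = below 25% or above 175%, edge rows of some plates excepted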;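 note: Galphao activated by GDP with aluminum fluoride before binding; 100% = wells without compound and 0% = beads without RGS; some results beyond the cut were filed as inactive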
# GALR2 agonist: GALR2 (human) receptor agonism; activation, %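 (tested at 5 µM)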; O43603; GALR2-expressing cells, agonist activation read-out; 140,000 tested, 0.48% active; AID 803;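 active = above mean plus 3 SD of all compounds, about 5% in these data, not always enough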;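 note: 0% = vehicle buffer wells and 100% = reference agonist at full effect; tested in CHO reporter cells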
# Insulin prom inh: TRM-6 insulin promoter activity inhibition; TRM-6 cells (human fetal islet line), insulin promoter-eGFP reporter, imaging; reporter expression induced with tamoxifen; AID 1273; inhibition, % at 2 µM; 130,000 tested, 0.9% active;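 active = inhibition above the mean plus 3 SD, with well images judged a real hit on visual review, cut at about 60% in these data, passing the limit was not always enough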
# HSV replic up: HSV replication enhancement; HSV replication augmentation in cells, fold increase; 220,000 tested, 0.005% active; maximum fold increase;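 active = peak rise of 1.5-fold or more in the series; tested in PC3 cells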;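 note: first round at 10 µM; read as green reporter fluorescence; hits show the peak of a series up to 25 µM; 1 = signal of infected wells without compound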
# PKD1 inh: blocks activity of human protein kinase D1; PKD1 kinase fluorescence polarization assay; inhibition, %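 (about 10 µM by stock and volumes)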; 200,000 tested, 0.056% active; AID 797;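 active = inhibition of 50% or more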;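 note: controls were vehicle for no effect and a reference inhibitor for full effect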
# Target sequence (Q15139 whole entry, looked up): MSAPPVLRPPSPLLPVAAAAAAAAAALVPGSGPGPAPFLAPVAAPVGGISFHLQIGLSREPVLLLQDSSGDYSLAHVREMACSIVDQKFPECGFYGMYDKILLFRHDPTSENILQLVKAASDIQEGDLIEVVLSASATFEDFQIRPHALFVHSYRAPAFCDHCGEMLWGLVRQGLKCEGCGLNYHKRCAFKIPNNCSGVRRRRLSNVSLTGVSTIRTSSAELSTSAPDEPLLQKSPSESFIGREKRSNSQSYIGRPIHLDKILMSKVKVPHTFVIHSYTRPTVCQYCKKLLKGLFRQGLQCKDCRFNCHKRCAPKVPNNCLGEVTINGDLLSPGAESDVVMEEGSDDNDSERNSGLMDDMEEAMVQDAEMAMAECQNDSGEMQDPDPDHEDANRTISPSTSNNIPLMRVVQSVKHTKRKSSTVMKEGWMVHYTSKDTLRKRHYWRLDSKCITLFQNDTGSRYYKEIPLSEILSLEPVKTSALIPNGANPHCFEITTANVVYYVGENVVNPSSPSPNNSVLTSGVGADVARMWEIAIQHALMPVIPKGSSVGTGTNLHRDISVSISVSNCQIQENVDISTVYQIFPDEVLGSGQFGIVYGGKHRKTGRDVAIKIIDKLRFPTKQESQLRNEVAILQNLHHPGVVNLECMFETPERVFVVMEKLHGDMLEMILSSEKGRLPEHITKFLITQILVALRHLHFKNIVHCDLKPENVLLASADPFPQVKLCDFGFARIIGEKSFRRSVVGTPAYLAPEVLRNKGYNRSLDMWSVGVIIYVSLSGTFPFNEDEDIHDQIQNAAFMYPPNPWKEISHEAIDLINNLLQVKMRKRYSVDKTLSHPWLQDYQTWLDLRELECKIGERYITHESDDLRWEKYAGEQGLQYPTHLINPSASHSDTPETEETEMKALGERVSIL
# Insulin prom inh cell count: second read-out of Insulin prom inh, no call of its own (marks repeat the call); normalized cell count, %; measured here: cell count, toxicity; reference of the scale not given here;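 cells exposed to compound for 48 h; stained nuclei by imaging scaled within each plate; lower means fewer cells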
# HSV replic up primary fold: recorded beside HSV replic up, whose call it bears; fold increase; compound at 10 µM; measured here: primary screen fold increase 10 uM; tested in PC3 cells;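 GFP signal in the first replicate; 1 = infected wells without compound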
# The depositor's hits bear a star; i = inactive; / = not tested or not shown.
# Keys – A = RGS16-Gao; B = GALR2 agonist; C = Insulin prom inh; D = Insulin prom inh cell count; E = HSV replic up; F = HSV replic up primary fold; G = PKD1 inh
> CC(O)C(NS(=O)(=O)c1ccc(Cl)cc1)C(=O)OCC(=O)N1CCN(c2ccccc2)CC1 (centres undefined)
  A: 101.8; B: -1.9; C: -5.9; D: 133.5; E: i; F: 1; G: 6.8
> Cc1ccc(-c2nc(N)n(C(=O)c3ccco3)n2)cc1
  A: 103.5; B: /; C: 20.0; D: 166.8; E: i; F: 0.88; G: -6.5
> CCN(CC)S(=O)(=O)c1cc(NC(=O)Cc2n[nH]c(=O)c3ccccc23)ccc1C
  A: 97.3; B: /; C: /; D: /; E: i; F: 0.97; G: /
> Cc1cc(C)c2c(N)c(C(=O)N/N=C/c3cccs3)sc2n1
  A: 91.8; B: /; C: /; D: /; E: i; F: 0.96; G: /
> Cc1cccc(NC(=O)Nc2cccc(F)c2)n1
  A: 104.8; B: -0.5; C: /; D: /; E: i; F: 0.92; G: -5.5
> Cc1cccc(NC(=O)NCc2ccc3c(c2)OCO3)c1C
  A: 99.2; B: /; C: 33.3; D: 87.0; E: i; F: 0.91; G: 1.2
> Cc1cc(C)n2ncc(/C(N)=N/OC(=O)Nc3ccc(Cl)cc3)c2n1
  A: 102.1; B: /; C: /; D: /; E: i; F: 0.72; G: /
> CCCCc1nnc(NC(=O)CC(=O)Nc2ccccc2C(=O)O)s1
  A: 98.7; B: -0.7; C: -25.0; D: 248.6; E: i; F: 0.96; G: -3.6
> CC(C)(C)OC(=O)CNC(=O)c1[nH]cnc1C(=O)Nc1ccc(CNC(=O)OC(C)(C)C)cc1
  A: 98.6; B: /; C: /; D: /; E: i; F: 0.72; G: /
> CC(C)CN(CC(C)C)C(=S)NC1CCCCC1
  A: 97.5; B: -1.0; C: -17.6; D: 160.7; E: i; F: 0.91; G: 2.2
> COc1ccc(C(=O)NNC(=O)CSc2ccccc2)cc1
  A: 101.8; B: /; C: /; D: /; E: i; F: 0.92; G: -2.2
> Cc1ccc(NC(=S)NC(=O)c2ccccc2)cc1NC(=S)NC(=O)c1ccccc1
  A: 135.7; B: /; C: /; D: /; E: i; F: 0.86; G: /
> COc1ccc(OCC(=O)Nc2nnc(-c3ccco3)s2)cc1
  A: 90.2; B: -2.9; C: -11.1; D: 71.0; E: i; F: 1.07; G: 17.9
> Cc1ccc(CSc2nc3ncccc3[nH]2)cc1
  A: 93.9; B: -0.1; C: -25.7; D: 77.6; E: i; F: 0.92; G: -1.2
> Cc1ccc(NC(=O)CSc2nc(CSc3ccc(C)cc3)cc(=O)[nH]2)cc1
  A: 99.6; B: /; C: /; D: /; E: i; F: 1.1; G: -1.3
> O=C(N/N=C/c1cccnc1)C12CC3CC(CC(C3)C1)C2
  A: 101.6; B: /; C: /; D: /; E: i; F: 0.92; G: -1.2
> O=C(O)c1c(NC(=O)c2cccc3ccccc23)sc2c1CCC2
  A: 106.9; B: -1.5; C: 7.1; D: 147.7; E: i; F: 0.98; G: -1.6
> COc1ccc(CN(CCC(c2ccccc2)c2ccc(OC(C)C)cc2)C(=O)CCl)cc1OC (centres undefined)
  A: 97.8; B: -2.6; C: -90.0; D: 3.3; E: i; F: 1; G: -12.7
> C[C@H](NC(N)=O)C(=O)OCC(=O)Nc1ccc(OC(F)F)cc1
  A: 103.5; B: /; C: /; D: /; E: i; F: 0.93; G: 4.0
> COc1ccc(N2CCN(Cc3nc4c(c(=O)[nH]c(=O)n4C)n3CC(C)=O)CC2)cc1
  A: 101.7; B: -3.2; C: /; D: /; E: i; F: 1.12; G: 5.9
> O=C(NCC(=O)N(c1ccc(F)cc1)C(C(=O)NCC1CCCO1)c1ccccc1)c1ccco1 (centres undefined)
  A: 216.8; B: -0.9; C: /; D: /; E: i; F: 1; G: -4.8
> COc1ccc(OCC(=O)N/N=C/c2ccc(N(C)C)cc2)cc1
  A: 105.7; B: /; C: 38.9; D: 135.4; E: i; F: 1.04; G: 2.7
> Cn1c(=O)n(/N=C/c2ccccc2)c2ccccc21
  A: 96.0; B: -3.4; C: 25.8; D: 145.3; E: i; F: 1.01; G: -5.4
> CCOc1ccc(N(CC(=O)NCc2cccs2)S(=O)(=O)c2c(C)noc2C)cc1
  A: 106.9; B: -0.4; C: /; D: /; E: i; F: 1; G: -7.4
> O=C(CN1CCN(Cc2ccccc2Cl)C1=O)NC1CCCCCCC1
  A: 95.0; B: -2.0; C: -54.8; D: 109.6; E: i; F: 0.97; G: 1.5
> CN1CCN(C(=O)CCc2nc(-c3ccc(Cl)cc3)no2)CC1
  A: 100.0; B: /; C: 26.3; D: 103.7; E: i; F: 1.05; G: -2.5
> CCOC(=O)C1=C(Cc2ccc(F)cc2)C(=O)c2ccccc2C1=O
  A: 81.5; B: -0.2; C: -22.2; D: 181.2; E: /; F: /; G: 4.2
> Cc1nn(CC(=O)c2ccc(Cl)cc2Cl)c(C)[n+]1N
  A: 100.9; B: -1.5; C: 6.7; D: 100.2; E: i; F: 0.89; G: 0.2
> NC(=O)C1CCN(C(=O)c2cc3n(n2)C(C(F)(F)F)CC(c2ccco2)N3)CC1 (centres undefined)
  A: 101.1; B: -1.9; C: /; D: /; E: i; F: 1.01; G: 1.4
> CCOC(=O)c1c(NC(=O)c2cc3n(n2)C(C(F)(F)F)CC(c2cccs2)N3)sc(C)c1C (centres undefined)
  A: 72.9; B: -1.0; C: /; D: /; E: /; F: /; G: 0.6
> NS(=O)(=O)c1cc(C(=O)N=Nc2c(O)[nH]c3ccccc23)ccc1Cl
  A: 92.2; B: /; C: /; D: /; E: i; F: 0.96; G: /
> COc1ccc(CNC(=O)C2CCC(CNc3nc(=S)[nH]c4ccccc34)CC2)cc1 (centres undefined)
  A: 101.3; B: /; C: 42.9; D: 77.1; E: i; F: 0.85; G: -7.6
> Cc1cccc(C)c1Nc1nnc(SCc2cc([N+](=O)[O-])cc3c2OCOC3)s1
  A: 103.4; B: -3.8; C: -26.1; D: 137.6; E: i; F: 1.22; G: -12.3
> C=CCOC(=O)C1=C[C@@H](C2CCCCC2)C[C@@H](OCc2ccc(CO)cc2)O1
  A: 96.0; B: /; C: /; D: /; E: i; F: 1.03; G: -1.6
> Cc1ccc2c(CSc3nc4nc(C)cc(C)n4n3)cc(=O)oc2c1
  A: 97.4; B: 3.5; C: -44.1; D: 135.1; E: i; F: 0.93; G: -4.6
> O=C(NCCCN1CCCC1=O)c1ccc2c(=O)n(-c3ccc(F)cc3)c(=S)[nH]c2c1
  A: 105.1; B: /; C: 8.3; D: 36.2; E: i; F: 0.91; G: -10.2
> CC(C)n1c(=O)[nH][nH]c1=S
  A: 56.7; B: /; C: /; D: /; E: i; F: 1.12; G: /
> COc1cccc(NC(=O)CN(C)CC(=O)NC(C)c2ccccc2)c1 (centres undefined)
  A: 101.1; B: /; C: /; D: /; E: i; F: 0.93; G: /
> Cn1nc(C(=O)Nc2ccc(S(=O)(=O)N3CCCCC3)cc2)ccc1=O
  A: 103.6; B: -3.3; C: 7.1; D: 66.8; E: i; F: 1.03; G: 9.8
> CC(C)C(c1nnnn1Cc1cccs1)N1CCN(c2ccccc2)CC1 (centres undefined)
  A: 93.2; B: -1.9; C: -19.4; D: 94.9; E: i; F: 0.97; G: 7.8
> COc1cc(NC(=O)c2cc3ccccc3o2)c(OC)cc1Br
  A: 98.1; B: -2.0; C: -3.2; D: 60.2; E: i; F: 0.84; G: 0.5
> Cn1c(=O)c2ncn(CC(=O)N=Nc3c(O)[nH]c4ccccc34)c2n(C)c1=O
  A: 100.5; B: /; C: -44.4; D: 31.3; E: i; F: 1.05; G: -4.4
> N=c1n(Cc2ccccc2)c2ccccc2n1CC(O)COc1ccccc1 (centres undefined)
  A: 91.9; B: -3.6; C: -21.4; D: 29.3; E: i; F: 0.61; G: -22.2
> Cc1nc(CN2CCC(c3ccccc3)CC2)cc(=O)[nH]1
  A: 107.5; B: /; C: 23.8; D: 134.0; E: i; F: 1; G: 1.1
> CSc1nccc(Oc2cncc(Cl)c2)n1
  A: 110.3; B: 0.5; C: 30.6; D: 130.5; E: i; F: 0.9; G: 3.0
> CCN(CC(=O)NCc1ccc(F)cc1)CC(O)COCc1cccc(OC)c1 (centres undefined)
  A: 97.3; B: -2.0; C: -121.2; D: 114.2; E: i; F: 0.99; G: -9.0
> Cc1ccc(/C(O)=C/C(=O)C(=O)NNC(=O)C(O)(c2ccccc2)c2ccccc2)cc1
  A: 102.7; B: -1.4; C: -161.9; D: 111.7; E: i; F: 0.86; G: -9.1
> c1ccc(-c2nn[nH]n2)nc1
  A: 98.3; B: /; C: /; D: /; E: i; F: 0.99; G: /
> CCc1ccc(S(=O)(=O)Nc2c(C)nn(C)c2C)cc1
  A: 96.7; B: -1.5; C: 27.6; D: 97.3; E: i; F: 1.01; G: -5.2
> O=C(O)/C=C\C(=O)Nc1ccc(OCc2ccccc2)cc1
  A: 103.5; B: /; C: 11.1; D: 175.3; E: i; F: 0.93; G: -0.1

# Profiles, quoted from the list.
# O=C(O)/C=C\C(=O)Nc1ccc(OCc2ccccc2)cc1 reads RGS16-Gao: 103.5; GALR2 agonist: /; Insulin prom inh: 11.1; Insulin prom inh cell count: 175.3; HSV replic up: i; HSV replic up primary fold: 0.93; PKD1 inh: -0.1
# CC(C)C(c1nnnn1Cc1cccs1)N1CCN(c2ccccc2)CC1 (centres undefined) reads RGS16-Gao: 93.2; GALR2 agonist: -1.9; Insulin prom inh: -19.4; Insulin prom inh cell count: 94.9; HSV replic up: i; HSV replic up primary fold: 0.97; PKD1 inh: 7.8
# CCc1ccc(S(=O)(=O)Nc2c(C)nn(C)c2C)cc1 reads RGS16-Gao: 96.7; GALR2 agonist: -1.5; Insulin prom inh: 27.6; Insulin prom inh cell count: 97.3; HSV replic up: i; HSV replic up primary fold: 1.01; PKD1 inh: -5.2

# Other structures.
# Keys – A = RGS16-Gao; B = GALR2 agonist; C = Insulin prom inh; D = Insulin prom inh cell count; E = HSV replic up; F = HSV replic up primary fold; G = PKD1 inh
> COc1cc(/C=c2/sc3nc(-c4ccccc4)c(-c4ccccc4)n3c2=O)cc(OC)c1OC
  A: 106.6; B: -0.2; C: 26.5; D: 159.5; E: i; F: 0.97; G: -14.9
> CSc1ccccc1NC(=O)CN1CCCCC1
  A: 104.6; B: /; C: -42.9; D: 58.1; E: /; F: /; G: 3.0
> COc1ccccc1NC(CC(=O)c1ccccc1)C(=O)OCC(=O)c1ccc(Br)cc1 (centres undefined)
  A: 115.0; B: -2.6; C: -20.0; D: 28.5; E: i; F: 1.03; G: 4.1
> O=C(/C=C/c1ccccc1)N1CCCN(C(=O)/C=C/c2ccccc2)CC1
  A: 99.6; B: -1.4; C: 17.1; D: 170.5; E: i; F: 1.03; G: -0.5
> CCOC(=O)CCC(=O)Nc1ccccc1C(N)=O
  A: 100.2; B: -1.7; C: /; D: /; E: i; F: 0.75; G: -8.3
> O=C(CN1CCC(NC(=O)c2ccccc2F)CC1)Nc1ccc2c(c1)OCO2
  A: 105.5; B: /; C: /; D: /; E: i; F: 1.02; G: -1.6
> CC(C)c1ccc(/C=N/NC(=O)c2cccc(S(=O)(=O)N3CCOCC3)c2)cc1
  A: 87.6; B: /; C: /; D: /; E: i; F: 0.92; G: 0.1
> O=C(NCC1CCCO1)C1CCCN1C(=O)Nc1ccc(Cl)c(Cl)c1 (centres undefined)
  A: 93.3; B: /; C: -114.8; D: 70.4; E: i; F: 1; G: -0.5
> CCOCCCNC(=O)c1c(-c2ccccc2)noc1C
  A: 64.9; B: -1.5; C: /; D: /; E: i; F: 0.957; G: -0.1
> CCCCCN1CC(O)=C(c2nc(-c3ccc(Cl)cc3)cs2)C1=N
  A: 81.0; B: -1.4; C: 81.1*; D: 67.1*; E: i; F: 1.06; G: 0.8
> CCOc1cc(NC(=O)c2cnccn2)c(OCC)cc1NC(=O)c1ccc(C)cc1
  A: /; B: 22.8*; C: 25.0; D: 81.0; E: /; F: /; G: -0.4
> COC(C[C@@H]1O[C@@H]1[C@@H](O)COCc1ccccc1)OC
  A: 111.8; B: /; C: /; D: /; E: i; F: 0.92; G: /
> CCc1cc(/C(Cc2ccccn2)=N\O)c(O)cc1O
  A: 107.7; B: -1.5; C: -25.0; D: 101.0; E: i; F: 1.05; G: -1.3

# 3 compounds drawn at random from those above:
# Keys – A = RGS16-Gao; B = GALR2 agonist; C = Insulin prom inh; D = Insulin prom inh cell count; E = HSV replic up; F = HSV replic up primary fold; G = PKD1 inh
> COc1ccccc1NC(CC(=O)c1ccccc1)C(=O)OCC(=O)c1ccc(Br)cc1 (centres undefined)
  A: 115.0; B: -2.6; C: -20.0; D: 28.5; E: i; F: 1.03; G: 4.1
> COc1cc(/C=c2/sc3nc(-c4ccccc4)c(-c4ccccc4)n3c2=O)cc(OC)c1OC
  A: 106.6; B: -0.2; C: 26.5; D: 159.5; E: i; F: 0.97; G: -14.9
> CCOc1cc(NC(=O)c2cnccn2)c(OCC)cc1NC(=O)c1ccc(C)cc1
  A: /; B: 22.8*; C: 25.0; D: 81.0; E: /; F: /; G: -0.4
